# Bioassay records: PubChem, several laboratories
# RecA intein inh: inhibitors of M. tuberculosis RecA intein splicing; P9WHJ3; cell-free RecA intein splicing, fluorescence; inhibition, %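 (about 9 µM by stock and volumes)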; hit rate 0.75% among 290,000; AID 2221; in the data active = inhibition above about 30%; inconclusive = no clear call, values can overlap the other calls;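 note: 0% = vehicle wells and 100% = reference inhibitor control wells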
# Target sequence (P9WHJ3 whole entry, looked up): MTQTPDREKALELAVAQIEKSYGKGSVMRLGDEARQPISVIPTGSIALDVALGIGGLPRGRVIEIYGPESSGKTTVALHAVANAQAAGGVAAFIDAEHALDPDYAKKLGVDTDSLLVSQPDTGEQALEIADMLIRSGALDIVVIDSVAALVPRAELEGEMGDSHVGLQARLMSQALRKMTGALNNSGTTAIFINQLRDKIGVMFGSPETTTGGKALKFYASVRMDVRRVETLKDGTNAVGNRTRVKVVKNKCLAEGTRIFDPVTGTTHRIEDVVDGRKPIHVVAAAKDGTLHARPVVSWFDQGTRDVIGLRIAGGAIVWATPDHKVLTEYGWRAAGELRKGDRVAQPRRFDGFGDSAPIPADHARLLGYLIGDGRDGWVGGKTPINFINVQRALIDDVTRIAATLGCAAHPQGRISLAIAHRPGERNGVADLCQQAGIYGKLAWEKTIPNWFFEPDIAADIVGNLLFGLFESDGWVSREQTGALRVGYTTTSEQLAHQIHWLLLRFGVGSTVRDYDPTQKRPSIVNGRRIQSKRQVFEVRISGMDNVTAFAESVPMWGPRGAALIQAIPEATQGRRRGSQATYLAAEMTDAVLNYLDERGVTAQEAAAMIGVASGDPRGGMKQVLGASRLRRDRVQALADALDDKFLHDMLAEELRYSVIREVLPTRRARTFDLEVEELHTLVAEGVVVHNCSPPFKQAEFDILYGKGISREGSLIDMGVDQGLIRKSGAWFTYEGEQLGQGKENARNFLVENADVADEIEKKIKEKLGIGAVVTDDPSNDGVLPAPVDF
# YopH inh: blocks Yersinia enterocolitica YopH tyrosine phosphatase; inhibition, %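 (about 10 µM by stock and volumes)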; AID 898; hit rate 0.16% among 140,000; fluorescence Ex485/Em525;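 active = inhibition of 50% or more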;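 note: controls were vehicle for no effect and minimum signal wells for full effect; inactives centre near -20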
# Mtb growth: M. tuberculosis H37Rv growth inhibitors, H37Rv strain (AID 1626); M. tuberculosis H37Rv growth inhibition; higher % means a stronger effect; inhibition, % at 10 µM, or IC50 in µM where a hit was titrated; hit rate 0.95% among 220,000;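 active = confirmed in a dose series; inconclusive = inhibition above 80% but not taken into the dose series; inactive = below 80% or under 30% at every dose of the series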;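 note: bacteria incubated seven days before Alamar blue readout; 0% = bacteria only wells and 100% = bacteria with antibiotic wells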
# Mtb betalactam: beta-lactam sensitization of Mtb H37Rv | inhibition, % at 25 µM | AID 434955 | hit rate 0.27% among 330,000 | M. tuberculosis H37Rv growth with meropenem, percent inhibition; hits of this screen are not shown here;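 active = about 74% or more and at least 40 points above the plate without the antibiotic, then above 30% in a dose series; inconclusive = first-round hits that could not be retested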;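 note: growth measured after seven days incubation then overnight dye step; 0% = bacteria only wells and 100% = bacteria with antibiotic; twin plates without the antibiotic show which effects depend on it; some results filed as inactive read as strong as hits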
# Arbovirus anti: antivirals against arbovirus infection; hit rate 0.37% among 200,000; arbovirus infection cell-based antiviral screen; inhibition, % at 10 µM;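 active = inhibition from about 30%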;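 note: bluetongue infection of BSR cells; cell survival read as ATP light after 72 h; 0% = infected wells without compound and 100% = uninfected wells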
# Arbovirus anti repeat: second read-out of Arbovirus anti, no call of its own (marks repeat the call); inhibition, %; measured here: 10K subset replicate screen; many hits read low in the repeat;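 first of two repeat runs on a subset; 0% = infected and 100% = uninfected wells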
# * hit, by the source's call; ? = inconclusive; . = not tested or not shown.
# The opening 4 records (preview)
SMILES,RecA intein inh,YopH inh,Mtb growth,Mtb betalactam,Arbovirus anti,others
CCC(Sc1nnc(-c2ccc(C)c(Cl)c2)n1CC)C(=O)Nc1nccs1 (stereo not given),.,-23,4%,0,8,
Cc1cc(N)nc(C)c1C#N,0.3,.,4%,-5,6,
CN1CCN(c2nc3c(c(=O)n(C)c(=O)n3C)n2Cc2ccccc2)CC1,-0.5,.,.,7,.,
CC(=O)c1cccc(S(=O)(=O)N(C)C2CCN(C)CC2)c1,-0.5,.,-3%,1,-4,

# The whole of this part, from the start:
SMILES,RecA intein inh,YopH inh,Mtb growth,Mtb betalactam,Arbovirus anti,others
CCC(Sc1nnc(-c2ccc(C)c(Cl)c2)n1CC)C(=O)Nc1nccs1 (stereo not given),.,-23,4%,0,8,
Cc1cc(N)nc(C)c1C#N,0.3,.,4%,-5,6,
CN1CCN(c2nc3c(c(=O)n(C)c(=O)n3C)n2Cc2ccccc2)CC1,-0.5,.,.,7,.,
CC(=O)c1cccc(S(=O)(=O)N(C)C2CCN(C)CC2)c1,-0.5,.,-3%,1,-4,
COc1ccc(-n2ccn(CC(=O)Nc3ccccc3OC)c(=O)c2=O)cc1,-0.4,.,.,-7,.,
Cc1ccc(S(=O)(=O)n2cnc3cc([N+](=O)[O-])ccc32)c(C)c1,0.1,-53,9%,10,-1,
CC1CC(C)CN(C(=O)CNC(=O)Cn2ccc3ccccc3c2=O)C1 (stereo not given),1.6,.,0%,-7,5,
COc1ccccc1CNC(=O)c1ccc(S(=O)(=O)N(C)C)cc1,-0.6,-29,-8%,2,5,
COc1cc(NC(=S)NC2CC(C)(C)NC(C)(C)C2)c(OC)cc1Cl,-3.0,.,-3%,-1,-6,
Cc1cc(C)n(C(=O)C(C)N2C(=O)c3ccccc3C2=O)n1 (stereo not given),1.4,-24,-16%,3,-1,
O=C(CSc1ccc(Cl)cc1)Nc1ccccc1Oc1ccccc1,-1.1,-6,-6%,-1,-2,
CC1(C)NC(=O)N(CC(=O)Nc2cc(C(F)(F)F)cc(C(F)(F)F)c2)C1=O,-0.2,.,.,1,.,
Cc1cc2cc(CNC(=O)NC3CCCCC3)ccc2[nH]1,4.7,-32,99%,97,-5,
Cc1ccccc1N1C(=O)CC1(C#N)c1ccc(OCc2ccccc2)cc1 (stereo not given),15,-27,12%,10,17,
COC(=O)c1c(NC(=S)Nc2ccc(F)cc2[N+](=O)[O-])sc2c1CCCCC2,-11,-45,-3%,2,-9,
Cc1ccc(OCCOC(=O)Cn2nc(C)c([N+](=O)[O-])c2C)cc1,-0.9,.,6%,-3,23,
CCSc1nnc2c(Cl)cc(Cl)cn12,2.2,-40,3%,-4,-2,
CCOC(=O)c1cccc(NC(=O)CN2C(=O)C3C4C=CC(C4)C3C2=O)c1 (stereo not given),1.3,-25,0%,-2,4,
COc1cccc(Cn2c(OCC3CCCO3)nc3c2c(=O)n(C)c(=O)n3C)c1 (stereo not given),-0.4,-32,-5%,3,7,
COC(=O)CC1=C(C(=O)OC)C(c2ccc3c(c2)OCO3)C(C#N)=C(N)O1 (stereo not given),-3.2,.,-4%,3,.,
COc1ccc(CCN=C2SCC(=O)N2C)cc1OC,-0.3,-20,3%,-7,2,Arbovirus anti repeat=0
CSc1nc(O)c(C(c2ccc(C)cc2)c2c(O)nc(SC)[nH]c2=O)c(=O)[nH]1,0.6,.,.,4,.,
CCOc1ccc(C2=Nn3c(nnc3-c3ccc(OC)cc3)SC2)cc1,2.4,-7,2%,10,-21,
C=CCSC1=C(C#N)C(c2ccccc2OC)CC(=O)N1 (stereo not given),0.7,47,5%,-9,0,
O=C(Nc1ccccc1C(=O)Nc1nnc(C(F)(F)F)s1)c1ccccc1Cl,0.2,.,7%,2,.,

# (continued)
SMILES,RecA intein inh,YopH inh,Mtb growth,Mtb betalactam,Arbovirus anti,others
COCCNC(=S)NCCc1ccc(Cl)cc1Cl,3.0,.,-10%,7,-9,
Cc1ccc(CNC(=O)COC(=O)CCCOc2ccc(Cl)cc2Cl)cc1,-0.2,-25,1%,-3,8,
COc1ccc(-c2oc3ccc(-c4cc(OC)c(OC)c(OC)c4)cc3c2-c2ccc(OC)cc2)cc1,1.0,.,11%,17,.,
CSc1ccccc1NC(=O)CN(Cc1ccccc1)S(C)(=O)=O,7.9,12,5%,0,17,
O=C(O)c1nn(-c2ccccc2)nc1-c1nn(-c2ccccc2)nc1C(=O)O,0.2,-39,2%,-7,3,
COc1ccc(/C=N/n2c(N)c(S(=O)(=O)c3cccs3)c3nc4ccccc4nc32)cc1OC,-5.5,-4,66%,8,-8,
CCN(CC)C(=O)c1nn(Cc2ccccc2)c(=O)c2ccccc12,-2.2,.,.,-2,.,
Cc1c([N+](=O)[O-])cc(S(=O)(=O)Nc2ccncc2)cc1[N+](=O)[O-],-1.5,.,-6%,-2,-3,
O=C(NC(=S)Nc1ccccc1N1CCCCC1)c1ccccc1,15,.,18%,71,-19,
CCOC(=O)C1CCCN(C(=O)c2sc3nc(-c4ccccc4)cn3c2C)C1 (stereo not given),.,-32,-2%,3,5,
N#Cc1ccc(S(=O)(=O)NC2CC2)cc1,-1.2,.,.,-7,.,
O=C1CN(C(=O)CSc2nc3ccccc3c(=O)n2CCCN2CCOCC2)c2ccccc2N1,0.7,.,-17%,-3,.,
COc1ccc(NC(=O)CSCC(=O)Nc2nnc(CC(C)C)s2)cc1,1.5,.,.,-6,.,
CC1(C)CC(=O)C(C(c2cccc([N+](=O)[O-])c2)C2C(=O)CC(C)(C)CC2=O)C(=O)C1,-12,-42,-1%,6,6,
CC(NC(=O)Cn1cccc1)c1ccccc1 (stereo not given),-0.3,.,.,2,.,
O=C(c1ccccc1)c1ccc(N2CCNCC2)cc1,.,-5,1%,.,-14,
O=C(CCSc1ccccc1)N1CCN(c2ccccc2F)CC1,6.3,.,2%,-2,2,
CC1CN(C(=O)C(C)N2CCN(c3ccccc3Cl)CC2)CC(C)O1 (stereo not given),-5.1,.,-5%,-11,-2,
CN(CC(=O)Nc1ccc2c(c1)OCO2)S(=O)(=O)c1ccc2c(c1)CCC(=O)N2,2.6,.,-7%,1,.,
O=S(=O)(Nc1ccc(O)c2ccccc12)c1ccc(F)cc1,94*,.,.,-1,.,
CC1(C)CC(=O)c2sc(NS(C)(=O)=O)nc2C1,-4.9,-117,-8%,-12,2,
CC1C2(C)OC(=N)C(C#N)(C(C)O2)C1(C#N)C#N (stereo not given),-190,.,-2%,-6,.,
COc1ccc(-c2oc3cccnc3c2C#CC2(O)CCCCC2)cc1,-9.4,.,.,94,.,
CCOC(=O)NC(CC(=O)O)c1ccc(OCC)cc1 (stereo not given),5.4,-54,3%,.,5,
COc1ccc(C(=O)NN2C(=S)N(c3ccc(OC)cc3)C(=O)C2CC(N)=O)cc1 (stereo not given),1.3,.,.,-1,.,

# Molecules shown so far containing a COOH group, in the order listed:
SMILES,RecA intein inh,YopH inh,Mtb growth,Mtb betalactam,Arbovirus anti,others
O=C(O)c1nn(-c2ccccc2)nc1-c1nn(-c2ccccc2)nc1C(=O)O,0.2,-39,2%,-7,3,
CCOC(=O)NC(CC(=O)O)c1ccc(OCC)cc1 (stereo not given),5.4,-54,3%,.,5,

# Next part.
SMILES,RecA intein inh,YopH inh,Mtb growth,Mtb betalactam,Arbovirus anti,others
O=C(Nc1nc(-c2ccc3c(c2)Cc2ccccc2-3)cs1)c1ccccc1,0.4,-28,2%,0,7,
COc1ccc(NC(=O)CCC(=O)Nc2nnc(C(C)C)s2)cc1Cl,-0.7,.,.,50,.,
Cc1nn(C(C)C(=O)N2CCOCC2)c(C)c1[N+](=O)[O-] (stereo not given),-1.0,-29,2%,-4,-7,
C=CCC1NS(=O)(=O)OC2CCCC12 (stereo not given),0.2,.,.,-3,.,
Cc1cnc(CN(C)C(=O)c2ccc3oc(Cc4ccccc4)nc3c2)[nH]1,3.5,.,.,7,.,
CCn1c(C)nc2cc(C(=O)N/N=C/c3ccc(OC)cc3)ccc21,-1.1,.,-6%,-2,3,
C/C(N)=C(/C#N)C(=O)CSc1cc(C)c2ccccc2n1,-2.2,.,-19%,-12,6,
COc1ccc(N(CC(=O)Nc2cccnc2)S(=O)(=O)c2ccccc2)cc1Cl,1.8,.,.,-3,.,
N#C/C(C(=O)N1CCOCC1)=C1\Nc2ccccc2S1,-7.1,-35,1%,10,5,
CN(C(=O)c1ccccc1C(=O)OCC(=O)NC(=O)NC(C)(C)C)C1CCCCC1,-3.2,.,0%,-12,0,
COc1ccc(CCNC(=O)c2noc3c2CCCC3)cc1OC,-1.5,-23,-1%,-6,-1,
O=C(NCc1ccco1)C1CCC(CNS(=O)(=O)c2cccc3cccnc23)CC1 (stereo not given),-1.0,4,-2%,-2,-1,
COC(=O)CCC(=O)Nc1ccc(NC(C)=O)cc1,3.2,-8,.,3,-1,
CN(NC(=O)CN1C(=O)c2ccccc2C1=O)C1=NS(=O)(=O)c2ccccc21,-2.8,.,1%,1,18,
Cc1cccc(N2CN(Cc3cccnc3)CNC2=S)c1,-4.3,-19,0%,-2,5,
Cc1cccc(NC(=O)Cn2c(=O)oc3ccccc32)n1,-1.7,.,.,?,.,
CC(=O)NC(c1ccc(C)cc1)c1cc(Cl)c2cccnc2c1O (stereo not given),-1.1,.,.,2,.,
COCCCNc1oc(-c2ccccc2F)nc1C#N,-0.4,-48,4%,3,-1,Arbovirus anti repeat=-3
CC(=O)N1CCc2cc(C(=O)CN3CCN(C(=O)c4ccco4)CC3)ccc21,-1.6,.,-3%,7,8,Arbovirus anti repeat=1
CCCCC1=CC2=C(c3ccco3)C(=O)C(C)(OC(=O)c3ccc(OC)cc3)C(=O)C2=CN1c1ccc(OC)cc1 (stereo not given),-1.6,.,-7%,-2,.,
COc1ccc2[nH]c(=O)c(CN(C(C)=O)C3CCCCC3)cc2c1,-1.0,-1,-4%,2,-8,
c1ccc(CSc2nncn2-c2ccccn2)cc1,0.7,3,-10%,-19,5,
COc1ccc(NC(=O)CC(C)CC(=O)NCc2ccc(F)cc2)c(OC)c1 (stereo not given),1.2,.,.,-2,.,
COc1ccccc1/C=N/NC(=S)Nc1cccnc1,-2.9,.,2%,.,16,
COC(=O)c1ccccc1NC(=O)CSCC(=O)Nc1ccccc1OC,-0.2,-23,-7%,-14,8,

# Other entries follow:
SMILES,RecA intein inh,YopH inh,Mtb growth,Mtb betalactam,Arbovirus anti,others
CCCc1cnc(N2CCN(C(=O)c3c(-c4ccccc4)noc3C)CC2)nc1,.,.,-3%,-4,.,
Cc1sc2ncn(CC(=O)Nc3c(F)cccc3F)c(=O)c2c1S(=O)(=O)N1CCC(C)CC1,-1.8,.,0%,-5,-6,
CCOC(=O)Cc1csc(NC(=O)CCN2C(=O)c3cccc([N+](=O)[O-])c3C2=O)n1,-4.4,.,.,3,.,
O=c1[nH]c2ccc(S(=O)(=O)N3CCC(Cc4ccccc4)CC3)cc2o1,3.3,-22,-15%,-17,15,
O=C(N/N=C/c1ccc(O)cc1)c1ccc(COc2cc(Cl)ccc2Cl)o1,6.9,-16,7%,23,-32,
CCC1CC(CSC(=N)N)OC1=O (stereo not given),0.4,.,-15%,3,.,
CCc1nc2scc(-c3ccc(C)cc3)c2c(=O)n1N,.,-7,19%,8,2,
c1ccc(-c2nn3c(Cn4nnc5ccccc54)nnc3s2)nc1,4.4,-5,-8%,-8,-2,
O=C(Nc1ccn(Cc2c(F)c(F)cc(F)c2F)n1)c1ccc(COc2ccccc2Cl)cc1,10,0,0%,6,-17,
COc1cc(-n2c(C)nc3cc(C(=O)NCC4CCCO4)ccc32)cc(OC)c1OC (stereo not given),2.1,.,.,?,.,
CN(C)S(=O)(=O)N1CCN(S(=O)(=O)c2ccc(F)cc2)CC1,0.9,-20,-10%,1,0,

# Looked up by compound from above, 3 records:
SMILES,RecA intein inh,YopH inh,Mtb growth,Mtb betalactam,Arbovirus anti,others
COc1cc(-n2c(C)nc3cc(C(=O)NCC4CCCO4)ccc32)cc(OC)c1OC (stereo not given),2.1,.,.,?,.,
CCCc1cnc(N2CCN(C(=O)c3c(-c4ccccc4)noc3C)CC2)nc1,.,.,-3%,-4,.,
CCC1CC(CSC(=N)N)OC1=O (stereo not given),0.4,.,-15%,3,.,

# An excerpt from above in order of SMILES length, falling.
SMILES,RecA intein inh,YopH inh,Mtb growth,Mtb betalactam,Arbovirus anti,others
COC(=O)c1c(NC(=S)Nc2ccc(F)cc2[N+](=O)[O-])sc2c1CCCCC2,-11,-45,-3%,2,-9,
COc1ccc(NC(=O)CC(C)CC(=O)NCc2ccc(F)cc2)c(OC)c1 (stereo not given),1.2,.,.,-2,.,
CCc1nc2scc(-c3ccc(C)cc3)c2c(=O)n1N,.,-7,19%,8,2,
c1ccc(CSc2nncn2-c2ccccn2)cc1,0.7,3,-10%,-19,5,

# The list is partial. The share of hits here may be higher or lower than overall.
